# Beta cell apopt – blocks beta cell apoptosis; AID 435005; 300,000 tested, 0.8% active; INS-1E cytokine-induced death, ATP luminescence, 48 h; percent of positive-control rescue, neutral wells zero; protection from apoptosis, % (test concentration not listed);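 active = all replicates at 75% or more, or half of them and the mean; inconclusive = half reach 75% but not the mean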;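 also: 0% = cytokine-treated negative control wells and 100% = positive control rescue; higher means more ATP so stronger rescue from cytokine killing; wells of about 40 µL received 100 nL stock; the first replicate is given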
# LANA-H2B inh – blocks KSHV LANA binding to histone H2A/H2B | Q9QR71 | cell-free LANA-H2A/H2B peptide, fluorescence polarization | inhibition, % (concentration not given with the values) | 320,000 tested, 0.6% active | AID 2629; in the data active = inhibition mostly above about 10%, no sharp cut-off; inactive = mostly below about 6.7%;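 also: stock transfer was 7.5 nL into about 10 µL; 0% = median of vehicle wells and 100% = median of positive control wells; one replicate is shown; the record names a cut of 25% in any replicate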
# Target sequence (Q9QR71 whole entry, looked up): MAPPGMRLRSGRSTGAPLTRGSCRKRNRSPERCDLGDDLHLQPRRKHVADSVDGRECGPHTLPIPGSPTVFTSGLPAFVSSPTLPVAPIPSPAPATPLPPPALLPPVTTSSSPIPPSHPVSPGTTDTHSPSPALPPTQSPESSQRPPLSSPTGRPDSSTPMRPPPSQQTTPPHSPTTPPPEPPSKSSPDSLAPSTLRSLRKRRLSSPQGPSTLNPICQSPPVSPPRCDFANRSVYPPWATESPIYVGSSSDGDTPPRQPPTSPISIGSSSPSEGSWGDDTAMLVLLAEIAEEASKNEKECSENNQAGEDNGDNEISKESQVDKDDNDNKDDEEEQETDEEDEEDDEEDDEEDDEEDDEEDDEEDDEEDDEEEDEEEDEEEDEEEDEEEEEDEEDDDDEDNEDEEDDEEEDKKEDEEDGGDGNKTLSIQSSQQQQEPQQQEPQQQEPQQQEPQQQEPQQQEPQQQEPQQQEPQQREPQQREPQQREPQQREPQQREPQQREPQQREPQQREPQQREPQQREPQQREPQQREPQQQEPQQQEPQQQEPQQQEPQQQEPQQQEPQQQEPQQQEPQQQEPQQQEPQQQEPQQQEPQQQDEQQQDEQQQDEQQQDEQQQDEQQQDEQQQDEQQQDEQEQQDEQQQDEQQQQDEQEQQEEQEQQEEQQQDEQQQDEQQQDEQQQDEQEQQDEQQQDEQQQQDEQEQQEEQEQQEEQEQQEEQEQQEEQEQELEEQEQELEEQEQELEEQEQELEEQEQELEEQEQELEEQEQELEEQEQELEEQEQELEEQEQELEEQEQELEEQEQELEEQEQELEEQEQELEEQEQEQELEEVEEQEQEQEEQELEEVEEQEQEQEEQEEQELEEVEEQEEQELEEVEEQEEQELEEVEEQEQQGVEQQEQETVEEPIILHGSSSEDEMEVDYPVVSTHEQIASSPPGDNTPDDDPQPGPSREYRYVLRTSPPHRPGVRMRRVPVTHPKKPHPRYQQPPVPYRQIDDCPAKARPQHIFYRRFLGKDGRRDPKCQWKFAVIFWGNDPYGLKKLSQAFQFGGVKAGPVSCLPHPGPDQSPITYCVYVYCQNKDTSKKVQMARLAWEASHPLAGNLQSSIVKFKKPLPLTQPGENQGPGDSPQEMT
# B2AR ag – activates human beta-2 adrenergic receptor causing internalization; response, % (concentration not given with the values); Am2.2-beta2AR cells, FAP receptor internalization, flow cytometry; reference of the scale not given here; AID 504454; 340,000 tested, 0.43% active;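 active = response above a set limit, near 3 SD of response in nonfluorescent compounds, cut at about 42% in these data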;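 also: stock transfer was 100 nL into about 11 µL; a reference agonist was the positive control; negative values mostly stem from fluorescent compounds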
# T cruzi repl – T. cruzi replication inhibition; T. cruzi beta-gal in NIH3T3, luminescence, 90 h; inhibition, % (test concentration not listed); 300,000 tested, 1.4% active; AID 1885;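 active = mean inhibition across valid replicates above about 55%, limit read from the data; inconclusive = mean below that limit but half or more replicates reach it; inactive = mean below it, under half of replicates reach it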;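 also: signal also drops with host cell toxicity which is not excluded here; 0% = plate median of DMSO wells and 100% = zero luminescence signal; higher percent means less beta-gal luminescence so fewer parasites; stock transfer was 50 nL into about 50 µL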
# Calb FLC – C. albicans growth modulation with fluconazole | C. albicans CaCi-2 (fluconazole-resistant clinical isolate) + fluconazole, Alamar Blue growth, 48 h | growth inhibition, % (no concentration beside the values) | 300,000 tested, 0.57% active;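 active = most replicates above 75%; inconclusive = exactly half above 75%; inactive = most below 75%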;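 also: all wells also contain fluconazole at 8 µg/ml as a sub-toxic cotreatment; 0% = median of DMSO wells and 100% = median of geldanamycin control wells; wells of about 8 µL received 7.5 nL stock; the first replicate is given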
# Bfl-1 A1 inh – inhibitors of the anti-apoptotic protein A1, read as caspase activation; MEF A1-2A-BIM cells, Caspase-Glo 3/7 luminescence, 3 h; percent of clofoctol response, vehicle zero; caspase activation, % (test concentration not listed); 330,000 tested, 0.066% active;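 active = over half of replicate activation scores above 10%, or exactly half above 10 with the replicate mean above 10; inconclusive = replicate mean below 10 yet half the replicates above 10; inactive = over half of replicates below 10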;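 also: wells of about 30 µL received 50 nL stock; many hits fall short of the cut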
# UCH37 inh – inhibitors of human deubiquitinating enzyme UCH37 | Q9Y5K5 | 330,000 tested, 0.33% active | purified proteasome/UCH37, Ub-AMC cleavage fluorescence | inhibition, % (test concentration not listed) | AID 588478;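 active = mean of two replicates above 20%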;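 also: 0% = compound-free wells with enzyme and 100% = wells lacking proteasome; stock transfer was 100 nL into about 20 µL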
#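 Material: human UCH37 enzyme supplied as purified proteasome complex. Measure: % inhibition of Ub-AMC cleavage fluorescence. Medium: pH 7.4 Tris-HCl (50 mM) with ovalbumin, ATP-MgCl2, DTT. Times: 30 min preincubation with enzyme, 25 min cleavage at room temperature. Detection: AMC fluorescence intensity at 355/460 nm.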
# RanGTP-Imp inh – inhibitors of RanGTP-importin-beta interaction, primary screen, biochemical, FRET, CFP-Ran, YFP-importin-beta, homogeneous | cell-free CFP-Ran/YFP-importin-beta FRET ratio | inhibition, % (concentration not given with the values) | 300,000 tested, 1.1% active | AID 2216;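 active = most replicates above 15%; inconclusive = exactly half above 15%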;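 also: 0% = DMSO wells and 100% = Ran loaded with GDP instead of GTP; wells of about 40 µL received 100 nL stock; the first replicate is given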
# Numbers without * were called inactive; i = inactive; u = inconclusive; x = no result given.
Structure	LANA-H2B inh	UCH37 inh	T cruzi repl	Bfl-1 A1 inh	B2AR ag	Beta cell apopt	RanGTP-Imp inh	Calb FLC
CCOC(=O)CN(C(=O)CSc1nnnn1C)c1ccccc1	2.9	2.2	x	0.6	-8	-6	x	x
CC1(C)Cc2cccc(OCC(=O)N3CCN(c4ccccc4)CC3)c2O1	1.3	7.3	18	0.1	-3	-6	u	-4
COc1cccc(SCC2CSc3nc4ccccc4c(=O)n32)c1 (configuration not stated)	-1.1	1.3	-1	0.6	7	1	1.1	13
CCNC(=S)N1CCC(C(N)=O)CC1	-2.6	3.4	-3	-0.3	-4	-3	1.1	-7
COc1ccc(NC(=O)[C@H](C)NC(N)=O)cc1S(=O)(=O)Nc1cc(C)ccc1Br	-0.7	1.5	-2	-0.8	1	-8	-2.0	10
CCOC(=O)c1ccc(N2C(=O)CC(Sc3ncccn3)C2=O)cc1 (configuration not stated)	-3.6	3.9	-14	0.7	7	-9	0.6	13
CCOC(=O)CSc1nc2c(c(=O)[nH]c(=O)n2C)n1CCCc1ccccc1	4.4	1.5	0	1.0	9	0	-12	5
COc1ccc(-c2noc(C3CCCN(C(=O)c4cccs4)C3)n2)cc1 (configuration not stated)	-1.3	2.3	-1	-0.1	-6	-1	2.2	5
COc1ccc(C(=O)NCCC2=CCCCC2)cc1OC	-3.1	4.1	1	0.1	-8	-5	2.1	-2
FC(F)(F)Oc1ccc(-c2cn3cccnc3n2)cc1	-5.4	i	-8	-4.0	-11	4	3.2	22
COc1ccc(CN2CCCCC2C(=O)Nc2ccc(OC)c(OC)c2)cc1OC (configuration not stated)	2.6	-1.0	-8	0.7	0	-7	-4.7	8
O=C(CC1Sc2ccccc2NC1=O)Nc1cccnc1 (configuration not stated)	-1.1	x	-2	0.1	4	-4	-1.3	-12
CCC1CCCCN1CCCNC(=O)c1ccc(CS(=O)(=O)c2ccccc2C)o1 (configuration not stated)	5.1	2.7	16	-0.7	-3	-1	-1.1	-8
O=C(CN1C(=O)NC2(CCOc3ccccc32)C1=O)NCC(F)(F)F (configuration not stated)	3.2	-0.5	-5	-1.0	-1	-9	5.6	-3
O=C(c1ccccc1NS(=O)(=O)c1ccc(F)cc1)N1CCCCC1	1.3	3.7	4	0.0	-1	-2	-0.4	3
O=C(CN(Cc1ccco1)S(=O)(=O)c1ccccc1)N/N=C/c1ccccc1C(=O)O	-5.0	x	1	u	9	-6	2.3	-5
CC(=O)Nc1cc[n+](C(C)C(=O)c2ccccc2)cc1 (configuration not stated)	1.2	0.8	-8	-0.2	-6	-9	-4.6	-11
CCc1cccc(NC(=O)COC(=O)C2CCN(c3ccc(C(F)(F)F)cn3)CC2)c1	-5.3	3.7	-8	-2.0	3	-1	-2.1	-1
N#CCC(=O)N/N=C/c1ccc(Sc2nc3ccccc3s2)o1	-0.5	x	8	0.3	5	-11	-8.6	3
Cc1ccc2ccccc2c1Cn1c(-n2ccnc2)nc2c1c(=O)n(C)c(=O)n2C	-1.4	2.6	3	0.4	-2	-1	6.0	19
COC(=O)c1ccc(CSc2nc3ccc(Cl)cc3[nH]2)o1	-4.8	1.1	1	-0.9	15	0	0.1	-8
O=C(CSc1n[nH]c(=O)n1C1CC1)Nc1ccc(Cl)c(Cl)c1	2.0	3.3	6	0.0	-1	-12	u	-3
CC(C)(C)CN1CCNC(=O)C1CC(=O)NC1Cc2ccccc2C1 (configuration not stated)	2.1	0.7	-22	0.9	0	1	1.6	-16
Cc1ccc2ncnc(-c3ccccc3)c2c1	3.1	-3.4	-5	u	-1	3	1.8	8
O=C(c1ccc(Cn2c(=S)[nH]c3cc4c(cc3c2=O)OCO4)cc1)N1CCN(c2ncccn2)CC1	1.7	4.2	23	0.0	x	1	6.1	-3
CC(NS(=O)(=O)c1ccc(OCC(=O)N2CCOCC2)cc1)c1ccccc1 (configuration not stated)	-1.6	1.4	x	-0.6	6	-3	x	16
Cc1ccc(S(=O)(=O)N2CCC(C(=O)OC3CCOC3=O)CC2)cc1C (configuration not stated)	0.9	1.6	-8	1.7	10	-5	-2.7	1
O=C(C1CCCO1)N1CCN(C(=S)Nc2ccccc2C(F)(F)F)CC1 (configuration not stated)	0.2	1.7	-12	-0.9	11	-5	u	18
O=C(NC1CCCCC1)N1CCN(c2ccccc2Cl)CC1	5.8	2.6	8	0.8	-2	0	2.5	-3
CCOc1cc(O)c(-c2[nH]ncc2-c2nc(C)cs2)cc1CC	4.2	-3.7	8	0.7	-8	-4	-3.0	12
O=[N+]([O-])c1ccc2c(OCc3nnc(-c4ccccc4Br)o3)ncnc2c1	8.3	3.8	71*	-0.3	-9	2	5.8	8
N=C1C(c2nc3ccccc3s2)=C(O)CN1Cc1ccccc1	1.3	-11	-16	1.4	-2	7	2.7	2
Cc1ccc(S(=O)(=O)CCC(=O)NCCc2ccc(Cl)cc2)cc1	4.5	2.7	-9	0.5	5	-6	1.9	-5
O=c1cc(N2CCCCC2)c(-c2ccccc2)nn1Cc1c(Cl)cccc1Cl	2.0	2.8	42	-0.3	4	16	1.7	12
COc1cc(C(=O)OC(C)CN2CCCC2)cc(OC)c1OC (configuration not stated)	-3.3	2.1	-3	0.5	1	-1	-1.3	8
Cc1ccc(S(=O)(=O)/N=C(/Nc2ccc3[nH]c(=O)[nH]c3c2)c2ccc(F)cc2)cc1	0.5	4.8	-12	0.5	-1	3	1.3	16
O=C(O)COc1ccc(-c2nccc(-c3ccccn3)n2)cc1	0.6	x	-20	-1.4	-6	-1	5.5	-8
O=S(=O)(c1ccc(NCc2ccccc2)cc1)N1CCOCC1	-0.7	0.0	8	1.1	-1	-6	x	x
COc1ccccc1NC(=S)NCc1ccc(F)cc1	5.9	1.5	0	0.7	0	-2	-2.3	-7
NC(=O)c1ccc(NC(=O)COC(=O)c2cc3c(s2)CCC3)cc1	-2.1	-2.3	x	-0.1	-2	-9	x	x
CN(Cc1ccccc1)S(=O)(=O)c1ccc(OCC(=O)N2CCC(C(N)=O)CC2)cc1	-0.9	1.0	-15	-1.6	9	0	-1.4	1
CCC(=O)N1Cc2ccccc2-c2ccccc2C1=O	-5.1	1.6	-13	0.4	x	-10	1.6	x
COc1ccc2c(c1)c(/C=C/c1cc[n+](C)cc1)cn2C	-208	17	41	1.0	-812	49	-72	81*
CCC(C(=O)NC(C)CCc1ccccc1)n1nc(C)n2c(cc3occc32)c1=O (configuration not stated)	9.4	-2.3	2	-0.6	-13	-2	1.8	-2
O/C(=C\c1nc2ccccc2nc1/C=C(\O)c1ccccc1)c1ccccc1	-5.4	-8.0	-4	-5.4	-393	x	14	57
CCN(CC)CCNC(=O)c1[nH]c2ccc(OCc3ccccc3)cc2c1C	1.9	-18	26	1.1	7	24	-1.3	-2
CC(=O)n1c(-c2ccccc2)c(CO)c2ccccc21	-0.3	3.3	-1	1.4	4	-8	-1.2	1
CC/C(=N\Nc1ccc([N+](=O)[O-])cc1)c1ccccc1	9.8	x	36	0.1	5	16	2.6	-60
Cc1cc(=O)n2nc(N3CCC(C(=O)NCc4ccco4)CC3)sc2n1	4.7	1.1	-2	1.9	7	-7	2.0	3
Cc1csc(N(C)C(=O)CSc2nnc(COc3cccc4ccccc34)o2)n1	0.3	3.4	14	0.7	7	8	5.5	-7

# Going on with the list.
Structure	LANA-H2B inh	UCH37 inh	T cruzi repl	Bfl-1 A1 inh	B2AR ag	Beta cell apopt	RanGTP-Imp inh	Calb FLC
CCOC(=O)N/N=C\c1ccc([N+](=O)[O-])s1	6.5	x	25	1.3	-3	x	-3.5	10
CC(=O)Nc1cccc(OCC(=O)NS(=O)(=O)c2ccc(C)cc2)c1	2.9	4.4	1	0.0	4	-2	-2.0	14
N#Cc1ccc(Oc2nc(Nc3ccc(F)cc3)nc(N3CCCC3)n2)cc1	11	1.9	39	-1.7	-2	19	u	-5
C=CCn1c2ccccc2c2nnc(SCC(=O)Nc3cc(C)on3)nc21	1.2	-0.6	3	0.2	-5	6	0.2	-3
COc1ccc([N+](=O)[O-])cc1NC(=O)C(C)OC(=O)C1c2ccccc2Oc2ccccc21 (configuration not stated)	4.8	5.0	4	0.1	8	-2	-3.6	-4
Cc1cccc(N2CCN(C(=O)c3ccc4nc(-c5ccco5)c(-c5ccco5)nc4c3)CC2C)c1 (configuration not stated)	-8.3	-22	-4	0.6	18	8	35*	25
COc1ccc(S(=O)(=O)N2CCOC23CCN(C(=O)c2ccc(Cl)cc2Cl)CC3)cc1	3.4	2.4	-2	0.4	1	-3	10	22
CCN(C(=O)COC(=O)c1ccc(Cl)c(S(=O)(=O)N2CCCCC2)c1)C1CCS(=O)(=O)C1 (configuration not stated)	4.4	1.1	x	0.1	-3	-5	x	x
O=C(O)CN1C(=O)C2C3C=CC(C2C1=O)C1C(=O)N(CC(=O)O)C(=O)C31 (configuration not stated)	1.6	0.3	0	2.2	0	-1	1.1	-5
C=CCSc1nc2c(c(=N)n1CC=C)C1CCCC1S2 (configuration not stated)	0.3	1.7	40	-0.7	-1	-9	2.3	-5
Cc1cc(C)c(C(N)=O)c(Cl)n1	1.2	3.4	-4	-0.2	-5	6	-0.9	-5
CN(NC(=O)Nc1ccc(Cl)cc1)c1c(Cl)c(Cl)nn1C	-4.6	4.0	-34	1.1	4	0	-1.5	4
COc1ccc(Cl)cc1C(=O)NNC(=O)c1ccc(F)c(S(=O)(=O)N2CCOCC2)c1	-1.4	2.2	x	-0.4	-8	2	x	x
O=C(N/N=C/c1c[nH]c2ccccc12)c1ccc2c(c1)OCCO2	-1.7	x	9	-4.7	4	2	1.1	1
CCCCN1Cc2c(nc3cc(-c4ccccc4)[nH]n3c2=O)C1=O	-0.7	i	7	0.2	2	1	-10	7
Cc1ccc(NC(=O)COc2ccccc2)cc1S(=O)(=O)N1CCCCCC1	1.2	0.0	8	-0.8	3	5	5.9	x
O=C(CN1C(=O)NC2(CCCc3ccccc32)C1=O)Nc1cccc(S(=O)(=O)N2CCCCC2)c1 (configuration not stated)	-8.3	x	-22	-0.3	1	1	3.8	-11
COc1cc(C(C)=O)ccc1OCC(O)Cn1nc(C)c(Br)c1C (configuration not stated)	-1.1	0.0	8	1.7	5	x	-4.5	-2
COc1cccc(CNC(=O)CCCN2C(=O)C(c3ccccc3)Oc3cccnc32)c1OC (configuration not stated)	11	0.8	14	0.3	-3	0	2.0	-9
O=C(Nc1ccncc1)C1CCCN(S(=O)(=O)c2cccc3cccnc23)C1 (configuration not stated)	0.2	6.8	-30	-0.4	-13	23	-0.5	8
Cc1cc(C)n(-c2nnc(C)n2/N=C/c2ccccc2OCc2ccccc2Cl)n1	1.7	x	-7	-0.3	1	-5	0.0	8
